Screening results as filed in PubChem.
p53null 32C kill = kills p53 null cells at the permissive temperature | H1299-neo p53 null cells, ATP luminescence, 24 h, 32C | Potency, µM (highest dose often 46.1 µM), for the others: at the highest dose activity change, negative = cytotoxicity, actives largely listed as cytotoxic | 55,000 compounds, 0.62% hits | AID 903;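 note: potency is the fitted concentration of half-maximal effect; 0% = DMSO only and -100% = full killing by 100 µM tamoxifen; nearly all actives have a fitted effect of over 55% in size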
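We seeded p53-null H1299-neo cells, incubated them overnight at 37C, and added compounds across a range up to 46 uM. After 24 hours at 32C, ATP reagent was applied for 20 min at room temperature and luminescence recorded.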
TSG101-PTAP inh = blocks PTAP binding to human TSG101, validation; 44,000 tested, under 10 active; Fluorescence polarization, FITC-PTAP peptide/Tsg101, 20 min; Potency, µM (highest dose often 115 µM), for inactives: at the highest dose activity change, negative = inhibition, usual class: inhibitors; Q99816; AID 1347069; note: potency is the fitted concentration of half-maximal effect; 0% is about no effect
Target sequence (Q99816 whole entry, looked up): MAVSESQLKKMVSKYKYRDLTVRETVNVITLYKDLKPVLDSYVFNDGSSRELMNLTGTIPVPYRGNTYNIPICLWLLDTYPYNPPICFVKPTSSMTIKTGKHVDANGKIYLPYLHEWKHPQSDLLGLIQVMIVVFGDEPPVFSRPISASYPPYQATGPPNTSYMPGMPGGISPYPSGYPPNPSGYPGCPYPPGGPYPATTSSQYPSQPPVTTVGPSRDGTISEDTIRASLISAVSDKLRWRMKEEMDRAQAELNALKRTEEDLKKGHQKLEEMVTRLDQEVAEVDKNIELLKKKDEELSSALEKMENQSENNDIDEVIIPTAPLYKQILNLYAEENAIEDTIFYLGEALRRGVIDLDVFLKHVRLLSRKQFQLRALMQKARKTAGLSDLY
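Read-out is FITC fluorescence polarization. Compounds were added to Tsg101 binding domain (10 uM final), then FITC-PTAP peptide (50 nM final), 20 min at r.t. Total S+P intensity flags fluorescent compounds.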
GALK inh = inhibits human galactokinase; recombinant GALK, Kinase-Glo ATP luminescence, 1 h; AID 1347072; 44,000 tested, under 10 active; Potency, µM (highest dose often 57.5 µM), for inactives: at the top dose activity, negative = inhibition, hits mostly inhibitors;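 note: plate controls were full GALK reaction for no effect and reaction lacking GALK for full effect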
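5 nM GALK with 35 µM ATP and 100 µM galactose in HEPES pH 8.0, MgCl2, NaCl, DTT, BSA; 1 h RT reaction, remaining ATP detected by Kinase-Glo Plus luminescence after 10 min; qHTS concentration series.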
FH mod = Identification of activators of human fumarate hydratase by quantitative high-throughput screening | AID 1347055, 2019 | Potency, µM (series often up to 79.9 µM), for the others: top-dose activity change, negative = inhibition, hits mostly inhibitors | 54,000 compounds, 0.22% hits | FH coupled MDH/diaphorase resazurin fluorescence, 15 min | Fumarate hydratase, mitochondrial (Homo sapiens), P07954; note: potency is the fitted concentration of half-maximal effect; % is set by controls: 0 for no effect and ±100 for the full control effect; the screen sought activators but most active calls are inhibition curves; nearly all actives have a fitted effect of over 45% in size
Target sequence (P07954 whole entry, looked up): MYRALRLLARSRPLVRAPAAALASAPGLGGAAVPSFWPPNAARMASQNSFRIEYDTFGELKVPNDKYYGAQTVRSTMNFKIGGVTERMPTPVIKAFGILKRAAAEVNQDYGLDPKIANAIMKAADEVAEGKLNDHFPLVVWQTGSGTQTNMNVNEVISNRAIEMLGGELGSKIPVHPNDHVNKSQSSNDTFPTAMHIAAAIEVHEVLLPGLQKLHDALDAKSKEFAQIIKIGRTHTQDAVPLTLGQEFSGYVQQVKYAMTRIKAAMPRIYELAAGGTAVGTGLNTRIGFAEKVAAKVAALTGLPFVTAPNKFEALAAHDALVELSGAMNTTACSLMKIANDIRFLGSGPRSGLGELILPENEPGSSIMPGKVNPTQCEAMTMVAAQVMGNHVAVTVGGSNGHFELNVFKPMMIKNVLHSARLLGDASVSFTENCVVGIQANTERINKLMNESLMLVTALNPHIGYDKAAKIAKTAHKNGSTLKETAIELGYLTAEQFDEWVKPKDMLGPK
B2AR arrestin ag = ADRB2 beta-arrestin recruitment | AID 1347077 | HTLA Tango cells, beta-arrestin recruitment, luciferase luminescence, 18 h | Potency, µM (top dose mostly 46.1 µM), for the others: at the highest dose activation, actives largely listed as activators | 44,000 tested, under 10 active;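 note: potency is the fitted concentration of half-maximal effect; 0% = DMSO and full agonism = EC100 isoproterenol or metaproterenol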
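Receptor–beta-arrestin recruitment read by tTA-responsive luciferase: compound titrations (up to 46 µM) incubated 18 h with Tango cells, then luminescent substrate 15 min at room temperature. Concentration-response fits classified by r2, efficacy and activity.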
p53null 39C kill = selectivity test: cytotoxicity in p53 null cells, nonpermissive temperature; H1299 p53-null (neo) cells, 39C, ATPlite viability, 24 h; Potency, µM (highest dose often 46.1 µM), without a hit: top-dose activity, negative = cell killing, actives largely listed as cytotoxic; 55,000 compounds, 0.97% hits;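 note: potency is the fitted concentration of half-maximal effect; 0% = DMSO only and -100% = full killing by 100 µM tamoxifen; nearly all actives have a fitted effect of over 50% in size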
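ATP-luminescence viability readout (ATPlite, 20 min RT) after 24 hr compound treatment at 39C of H1299-neo or H1299-p53A138V cells; titration up to 46 uM; normalized to DMSO and 100 uM tamoxifen; Hill-fit AC50.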
Active calls of the source: *; u = inconclusive; x = not tested or not shown; [ ] = remark or other dose. Calls come from the whole dose curve; as a rule, active = well fitted curve in the direction sought with a large enough effect; inconclusive = small, poorly fitted or top-dose-only effect, or another doubt; inactive = no such curve, though single readings can be large; an effect the other way counts as inactive or inconclusive.

item | compound | p53null 32C kill | TSG101-PTAP inh | GALK inh | FH mod | B2AR arrestin ag | p53null 39C kill
1 | CC(C)c1cnc2c(c1SCc1ccc([N+](=O)[O-])cc1)c(=O)n(C)c(=O)n2C | -8% | 0% | 0% | u | 1% | 5%
2 | Cc1cc(C)cc(-n2ccnc(NCc3ccc(F)cc3)c2=O)c1 | 2% | -2% | 1% | -6% | -1% | -9%
3 | Cc1ccc(-c2csc3ncnc(Nc4ccc(C(=O)O)cc4)c23)cc1 | -3% | -11% | -1% | u | 0% | -5%
4 | COc1ccc(OC)c(NC(=O)c2oc(=O)c3ccccc3c2-c2ccccc2)c1 | -3% | 0% | 2% | -14% | 0% | 3%
5 | CCOC(=O)CC(NS(=O)(=O)c1cc(-c2cc(C)no2)ccc1C)c1ccc(C)cc1 (stereo not drawn) | 14% | 2% | -3% | -27% | 0% | -3%
6 | CCc1cc2c(cc3c(=O)n(CC(=O)NC4CCCCC4)ncn32)s1 | -4% | -5% | 7% | -4% | 1% | 7%
7 | CC(=O)Nc1ccc(S(=O)(=O)NCc2ccc(C(=O)NCc3ccc(Cl)cc3)cc2)cc1 | -2% | 0% | 6% | -2% | 1% | 16%
8 | COc1ccc(Cn2ccc3nc(C)c(C(=O)Nc4ccc(OC)cc4OC)cc3c2=O)cc1 | -4% | 3% | 1% | -8% | 3% | 18%

Individual results from the list:
B2AR arrestin ag, #8 = 3%
p53null 32C kill, #7 = -2%
B2AR arrestin ag, #2 = -1%

Of the compounds above, 2 contain a thiophene ring, fused or not.
item | compound | p53null 32C kill | TSG101-PTAP inh | GALK inh | FH mod | B2AR arrestin ag | p53null 39C kill
3 | Cc1ccc(-c2csc3ncnc(Nc4ccc(C(=O)O)cc4)c23)cc1 | -3% | -11% | -1% | u | 0% | -5%
6 | CCc1cc2c(cc3c(=O)n(CC(=O)NC4CCCCC4)ncn32)s1 | -4% | -5% | 7% | -4% | 1% | 7%

(more compounds)
item | compound | p53null 32C kill | TSG101-PTAP inh | GALK inh | FH mod | B2AR arrestin ag | p53null 39C kill
9 | Cc1nc2nc(SCC(=O)NC(C)c3ccccc3)nn2c(C)c1Cc1c(F)cccc1Cl (stereo not drawn) | 18% | -17% | -4% | -26% | 0% | 22%
10 | O=C(Cn1cc(S(=O)(=O)c2ccccc2)c(=O)c2cc(Cl)ccc21)Nc1ccc2c(c1)OCO2 | 11% | 0% | -2% | -3% | 0% | 1%
11 | CC(=O)c1ccc(NC(=O)CCCSc2nc(-c3ccco3)cc(C(F)(F)F)n2)cc1 | 17% | 1% | 2% | -4% | 1% | u
12 | CN1CCN(c2oc(/C=C/c3ccc(F)cc3)nc2C#N)CC1 | 9% | -1% | 1% | -7% | -1% | 5%
13 | O=C(O)c1cccc(Nc2ncnc3scc(-c4ccccc4)c23)c1 | -6% | -2% | 0% | -13% | -2% | 2%
14 | CCOc1ccc(CNC(=O)c2ccccc2NC(=O)c2nsc3ccccc23)cc1 | -29% | -1% | 4% | -19% | 0% | 13µM*
15 | COc1cccc(/C=C/c2nc(C#N)c(N3CCN(C)CC3)o2)c1 | -11% | 4% | 2% | -15% | -1% | -15%
16 | CC(C)CCNC(=O)c1cccc(-n2cnc3cccnc32)c1 | 0% | -7% | 1% | -6% | -1% | 10%

Record cards, from the list above. Screens in order: p53null 32C kill	TSG101-PTAP inh	GALK inh	FH mod	B2AR arrestin ag	p53null 39C kill
`O=C(Cn1cc(S(=O)(=O)c2ccccc2)c(=O)c2cc(Cl)ccc21)Nc1ccc2c(c1)OCO2` in the list: 11%	0%	-2%	-3%	0%	1%
`O=C(O)c1cccc(Nc2ncnc3scc(-c4ccccc4)c23)c1` in the list: -6%	-2%	0%	-13%	-2%	2%
`CCOc1ccc(CNC(=O)c2ccccc2NC(=O)c2nsc3ccccc23)cc1` in the list: -29%	-1%	4%	-19%	0%	13µM*

(cont.)
item | compound | p53null 32C kill | TSG101-PTAP inh | GALK inh | FH mod | B2AR arrestin ag | p53null 39C kill
17 | CN(C)CCCOc1nn(Cc2ccccc2)c2ccccc12 | x | x | x | 4% | x | x
18 | CC(C)NS(=O)(=O)c1ccc2nc(NC(=O)c3cncc(Br)c3)sc2c1 | -19% | 0% | u | -16% | 0% | -22%
19 | Cc1ccc(-n2ccnc(NCc3ccccc3)c2=O)cc1C | 1% | -1% | 0% | -1% | 1% | 1%
20 | COc1ccc(S(=O)(=O)NCCc2sc(-c3cccnc3)nc2C)c(F)c1 | 6% | 1% | -5% | -10% | -1% | 15%
21 | Cc1c2cnn(CC(=O)NCC(C)c3ccccc3)c(=O)c2c(C)n1Cc1cccc(Cl)c1 (stereo not drawn) | -6% | 1% | 6% | -10% | 0% | -16%
22 | Cc1cccc(C(=O)n2nc(-c3ccco3)nc2NCc2ccccc2)c1 | -6% | 0% | 1% | -23% | 1% | u
23 | Cc1cccc(C)c1NS(=O)(=O)c1ccc(NS(=O)(=O)c2ccc3c(c2)OCCO3)cc1 | -3% | 0% | 2% | -32% | 1% | 0%
24 | Cc1ccc(CN2C(=O)C3(c4ccccc42)N(c2cccc(F)c2)C(=O)CS3(=O)=O)cc1 (stereo not drawn) | 14% | -4% | 2% | -12% | 1% | 7%
25 | COc1ccccc1CNc1nc(-c2ccco2)nn1C(=O)c1ccccc1[N+](=O)[O-] | -13% | -3% | 0% | u | -4% | -37%
26 | CCC(=O)Nc1ccccc1-c1nc2ccccc2n(C(C)C(=O)Nc2cccc(Cl)c2C)c1=O (stereo not drawn) | 6% | 3% | -7% | u | -2% | 4%
27 | Cc1ccccc1Cn1c(COc2ccc(Cl)cc2)nc2ccccc21 | 1% | 3% | 1% | -33% | 1% | 3%
28 | COc1ccc(OC)c(NS(=O)(=O)c2ccc(Br)s2)c1 | 23% | -4% | 2% | -8% | 1% | 7%
29 | COc1ccc(NC(=O)Nc2cn(CC(C)C)c(=O)c3ccccc23)c(OC)c1 | 6% | -7% | 1% | 8% | 2% | -4%
30 | CCn1cc(/C=C(\NC(=O)c2ccc(OC)cc2)C(=O)NCCCn2ccnc2)c2ccccc21 | 1% | -2% | -12% | 11% | -3% | -10%
31 | Cc1ccc2c(CC(=O)Nc3ccc(S(=O)(=O)N4CCCC(C)C4)cc3)coc2c1 (stereo not drawn) | 8% | 6% | 5% | -30% | 1% | -3%
32 | CCOc1ccc(S(=O)(=O)NCCc2sc(-c3ccc(C)cc3)nc2C)cc1 | 21% | -1% | -5% | u | 0% | -6%
33 | Cc1nc(-c2ccccc2)sc1CCNS(=O)(=O)c1ccccc1 | -8% | -2% | 3% | -18% | -1% | 13%
34 | COc1ccc(-n2ccnc(NCCc3ccc(S(N)(=O)=O)cc3)c2=O)cc1 | -3% | 0% | -3% | -1% | 3% | 19%
35 | COc1ccc2c(c1)c(=O)c(C(=O)c1ccccc1)cn2CC(=O)Nc1ccc2c(c1)OCO2 | -12% | -3% | -1% | -4% | 1% | -19%
36 | CCc1ccccc1NC(=O)CCCSc1nc(-c2ccco2)cc(C(F)(F)F)n1 | 5% | 1% | 0% | -3% | 0% | -13%
37 | Cc1cccc(-c2nc(SCc3cc(=O)c4cccc(F)c4[nH]3)n[nH]2)c1 | 1% | -4% | 0% | -10% | 0% | -8%
38 | CCOC(=O)c1ccc(NC(=O)CC2Nc3cccc4cccc(c34)NC2=O)cc1 (stereo not drawn) | 2% | -8% | 2% | u | 1% | u
39 | O=C(c1ccc2c(c1)N(Cc1c(F)cccc1Cl)C(=O)c1ccccc1S2)N1CCOCC1 | 20% | -1% | -2% | -4% | 6% | -15%
40 | Cc1cccc(OCc2nnc(SCC(=O)Nc3ccc(C)cc3C)o2)c1 | -3% | 0% | -1% | -3% | -2% | 2%
41 | Cc1ccccc1/C=C(\C#N)c1nc(-c2ccc(Cl)cc2)cs1 | -7% | 9% | 9% | -15% | 1% | -27%
42 | C#Cc1cccc(Nc2ncnc3cc(OCCOC)c(OCCOC)cc23)c1 | x | x | x | -11% | x | x
43 | Cn1nnc(-c2ccc(-c3ccc(N4C[C@H](CO)OC4=O)cc3F)cn2)n1 | x | x | x | 3% | x | x
44 | COc1ccc(OC)c(NS(=O)(=O)c2ccc3c(c2)C(C)(C)C(=O)N3C)c1 | 0% | 1% | -12% | -1% | -1% | -10%
45 | N#C/C(=C/c1ccc(O)cc1)c1nc(-c2ccc(-c3ccccc3)cc2)cs1 | -7% | 1% | 0% | -3% | 1% | -20%
46 | COc1cccc(CNC(=O)CN2C(=O)N(c3ccc(C)cc3C)S(=O)(=O)c3ccccc32)c1OC | -1% | -6% | 2% | -11% | 0% | -1%
47 | COc1ccc(N2CC3=C(C2=O)C(c2ccc(Br)cc2)NC(=O)N3C)cc1 (stereo not drawn) | 1%[9.22 µM] | -2% | 9% | 1% | 0% | -18%
48 | CN1C(=O)C[C@H](C(=O)N[C@@H](Cc2cnc[nH]2)C(=O)N2CCC[C@@H]2C(N)=O)NC1=O | x | x | x | 7%[53.3 µM] | x | x

Continued; it opens with the 2 that closed the last part.
item | compound | p53null 32C kill | TSG101-PTAP inh | GALK inh | FH mod | B2AR arrestin ag | p53null 39C kill
47 | COc1ccc(N2CC3=C(C2=O)C(c2ccc(Br)cc2)NC(=O)N3C)cc1 (stereo not drawn) | 1%[9.22 µM] | -2% | 9% | 1% | 0% | -18%
48 | CN1C(=O)C[C@H](C(=O)N[C@@H](Cc2cnc[nH]2)C(=O)N2CCC[C@@H]2C(N)=O)NC1=O | x | x | x | 7%[53.3 µM] | x | x
49 | CCCN(C(=O)NCc1noc2ccc(C)cc12)c1ccc(Cl)c(Cl)c1 | 14% | -11% | 2% | -15% | 0% | -2%
50 | COc1cc(OC)cc(-c2cc3nc(C)c(CCC(=O)Nc4ccccc4OC)c(C)n3n2)c1 | -4% | 1% | 0% | -25% | 1% | -28%
51 | CC(C)CCNC(=O)CCCN1C(=O)c2ccccc2Sc2ncccc21 | -4% | -5% | 5% | 11% | -1% | -6%
52 | COc1ccc(C)cc1NC(=O)Cn1c(=O)ccc2cc(S(=O)(=O)N3CCCC3)ccc21 | -6% | 1% | 0% | -3% | -1% | 19%
53 | CCOc1ccc(NC(=O)Cn2cc(C(=O)c3ccc(C)cc3)c(=O)c3cc4c(cc32)OCO4)cc1 | 8% | 1% | -11% | 1% | 1% | 14%
54 | Cc1ccc2c(c1)c(=O)c(S(=O)(=O)c1ccc(F)cc1)cn2CC(=O)Nc1ccc2c(c1)OCO2 | -1% | 2% | 1% | -10% | -2% | -7%
55 | COc1cc(O)cc(C)c1C(=O)OC1C(CO)OC(OC2C(O)C(O)C(O)C(O)C2O)C(O)C1O (stereo not drawn) | x | x | x | -2%[53.3 µM] | x | x
56 | CC1=C(C(=O)Nc2cccnc2)C(c2ccccc2)n2nc(-c3ccc(O)cc3)nc2N1 (stereo not drawn) | 7% | -7% | 0% | 0% | -2% | 45%[activator]
57 | Cc1cccc(N2CCN(CCCNC(=O)c3nnc(Cc4c(F)cccc4Cl)o3)CC2C)c1 (stereo not drawn) | 1% | 1% | 2% | -1% | 0% | -8%
58 | CCOC(=O)Cn1c(=O)cc(C(F)(F)C(F)(F)F)c2c(C)nn(CC)c21 | -1% | -10% | 1% | -16% | 0% | -12%

These rows are one share of the data; count on the stated rates, not on these rows.
